Screens: PubChem, several laboratories
Mtb hypoxia inh = inhibitors of hypoxia-regulated fluorescent reporter in Mycobacterium tuberculosis; M. tuberculosis hypoxia-regulated fluorescent reporter, fluorescence; fluorescence inhibition, % (test concentration not listed); hit rate 0.1% among 300,000; AID 1159583;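 active = 35 to 45% if threefold the growth effect, above 45% if 1.5-fold the growth effect; inactive = the rest, general growth blockers included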;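 note: wells of about 50 µL received 100 nL stock; 0% = vehicle wells and 100% = reference inhibitor wells; whole bacteria with a GFP reporter of the hypoxia response; strong numbers were not always called active; many hits fall short of the cut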
BJeLR viability = kills HRASV12-expressing BJeLR cells. inhibition, % (concentration not given with the values). BJeLR (HRASV12) viability, CellTiter-Glo ATP luminescence, 48 h; reference of the scale not given here. AID 1554. hit rate 0.17% among 300,000;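 active = replicate mean above 50%; inconclusive = above 50% but judged a plate artefact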;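 note: 50 nL library stock added to about 25 µL; numbers are from one replicate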
PrP UTR inh = inhibition of PrP 5' UTR reporter expression | hit rate 0.35% among 340,000 | AID 488862 | cell-based PrP 5' UTR mRNA reporter, plate reader | inhibition, % (no concentration beside the values);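 active = every replicate at 50% or more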;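 note: 0 = median of the neutral control wells; tested in H4 reporter cells; numbers are from one replicate; inactives centre near -14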
Autofluor counter = flagged as autofluorescent in microsphere protease counterscreen | compound autofluorescence counterscreen, microsphere flow cytometry; active compounds read high | fluorescence intensity (concentration not given with the values) | hit rate 3.1% among 360,000;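 active = at least 3 SD above the mean of all compounds, about 16000 in these data; inconclusive = too few beads counted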;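 note: 100 nL of 1 mM stock went into each well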
Sa ugtP lethal = compounds lethal to S. aureus RN4220 ugtP deletion mutant; growth inhibition, % (test concentration not listed); OD600 growth, 16 h; some inactives read as strong as hits; hit rate 0.54% among 330,000; AID 1259309;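 active = z-score under -3 and OD600 up to 0.15 on both plates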;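 note: plate controls were untreated wells for no effect and antibiotic for full effect; wells of about 80 µL received 100 nL stock; the first replicate is given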
Sa RN4220 lethal = S. aureus RN4220 growth inhibition. hit rate 0.33% among 330,000. inhibition, % (concentration not given with the values). AID 1259311. OD600, 16 h;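 active = z-score of -3 or lower and OD600 up to 0.18 on both plates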;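 note: plate controls were untreated cells for no effect and reference antibiotic for full effect; stock transfer was 100 nL into about 80 µL; one replicate is shown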
Mtb hypoxia inh growth = recorded beside Mtb hypoxia inh, whose call it bears; growth inhibition, %; measured here: M. tuberculosis growth (absorbance);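 0% = vehicle and 100% = reference antibiotic; read after six days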
Numbers without * were called inactive; ? = inconclusive; / = not tested or not shown; & = joins results of further samples. Not a hit list. About 4.1% of those tested had a hit in this group.

SMILES	Mtb hypoxia inh	Mtb hypoxia inh growth	BJeLR viability	PrP UTR inh	Autofluor counter	Sa ugtP lethal	Sa RN4220 lethal
C=CCSc1nnc(NC(=O)C2CSC3(C)CCC(=O)N23)s1 (configuration not stated)	-3	-6	10	-6	4199	1	5.5
O/N=C\c1cccn1-c1nccs1	/	/	-7	-22	3238	/	/
CCOC(=O)c1ccccc1NC(=O)CSc1cccc[n+]1[O-]	1	7	2	-7	?	-6	-6.2
Cc1csc2nc3ccccc3c(=O)n12	/	/	5	-19	3014	3	0.9
CCN1C(=O)/C(=C2/Sc3ccccc3N2CCCS(=O)(=O)O)SC1=S	6	5	4&5	-20&-14	2765&3697	6&-4	-1.4&-3.2
COc1ccc(CNc2ccc3cn[nH]c3c2)c(OC)c1OC	7	1	8	-35	7724	-5	1.3
CN(CCC#N)C(=O)COC(=O)c1ccc2c(c1)C(=O)N(C1CCCCC1)C2=O	8	-11	-1	-46	6250	5	1.5
CCOc1ccc(-n2c(C)cc(C=NNC(=O)C(N)=O)c2C)cc1	-8	0	/	/	/	-3	-0.6
Cc1ccc(C)c(S(=O)(=O)NCc2ccc(C(=O)N3CCOCC3)cc2)c1	-4	-2	-8	1	4640	-2	2.2
C=CCn1c(CSc2nc3ccccc3s2)nnc1SCC(=O)NCc1ccccc1	/	/	-3	-11	4935	-6	-0.7
O=C(CSc1nnc(-c2ccccc2Cl)o1)Nc1ccc2c(c1)OCCO2	3	7	5	-47	19436*	-4	5.6
CCN1C(=c2sc(=C3C(=O)N(c4ccccc4)N=C3C)n(CC)c2=O)C=Cc2ccccc21	4	6	/	/	/	12	1.5
CCOc1cc(N2CCOCC2)c(OCC)cc1NC(=O)Cc1ccccc1	7	8	-4	-63	/	18	3.0
CCCC(C)NC(=O)C1CCN(S(=O)(=O)c2ccccc2)CC1 (configuration not stated)	-3	7	-4	-12	5269	-3	1.4
O=C(CN1CCN(Cc2ccccc2)CC1)c1c[nH]c2ccccc12	/	/	-2	-20	3185	-5	-0.8
O=C(/C=C/c1ccc([N+](=O)[O-])cc1)c1ccco1	-4	1	1	-21	3465	-5	0.7
Cc1cccc(CS(=O)(=O)Cc2ccc(C(=O)NCc3cccs3)o2)c1	-13	-3	-3	-6	4288	-9	-0.2
N#CCCn1cc(C=NNC(N)=S)c(-c2ccccc2)n1	1	8	/	/	/	7	1.4
O=C(NCc1ccco1)C1CCCN1C(=O)Nc1cccc(Cl)c1 (configuration not stated)	10	6	-4	-40	4106	1	4.8
O=S1(=O)NC(=NCc2ccccc2)c2ccccc21	2	2	-5	-4	19517*	9	2.2
Cc1cc(Cl)ccc1OCCCC(=O)NC1CCN(C)CC1	0	-2	12	-23	11940	-1	-1.6
CCC(CC)NC(=O)c1n[nH]c(=O)c2ccccc12	3	7	8	-1	3710	-2	0.9
CCCCN(C(=O)c1cccc(-n2cccc2)c1)c1c(N)n(CCC)c(=O)[nH]c1=O	-4	-8	8	-5	4867	6	3.1
CC(C)C1Nc2c(C(=O)O)cccc2C(Nc2ccccc2C(=O)O)C1(C)C (configuration not stated)	11	9	4	-6	3560	4	2.4
O=C(O)Cc1coc2ccc3ccccc3c12	13	-2	-5	-20	4199	6	6.9
CC1O[C@@H](O[C@H](C)CC[C@@H](C)O)C(O)C[C@H]1O (some centres not stated)	/	/	9	-9	4247	/	/
CC(=O)NCc1ccc(S(=O)(=O)NC2CCN(Cc3ccccc3)CC2)cc1	-13	-1	-1	/	/	6	-1.7
CC1Cc2nc(SCC(=O)NCc3ccco3)n(-c3ccccc3)c(=O)c2S1 (configuration not stated)	14	10	1	-22	5180	-3	-15
COc1ccc(C=Nn2cnc3c([nH]c4ccc(Br)cc43)c2=O)cc1CN1CCOCC1	-8	4	/	/	/	-1	0.5
c1ccc2[nH]c(SCC3CCCCO3)nc2c1 (configuration not stated)	8	6	22	-24	4426	5	2.1
CCc1ccc(C(=O)/C=C/NCc2ccc(F)cc2)cc1	2	-2	0	-22	3006	2	1.1
Cc1cc2sc(C(=O)O)c(C)c2s1	/	/	-6	-1	4656	-3	1.5
COc1ccc(/C=N/n2cc(-c3ccccc3)nc2N)cc1	/	/	10	-26	7854	/	/
Cc1nc2ccccc2cc1C(=O)NCc1ccccc1	14	8	5	-4	3583	2	3.7
CC(NC(=O)NC(=O)c1ccc(F)cc1)C1CC1 (configuration not stated)	3	-1	/	-47	8562	2	4.3
CC(NC(=O)N(Cc1ccccc1)Cc1ccc2c(c1)OCO2)(C(F)(F)F)C(F)(F)F	2	5	-4	-29	5669	19	-0.6
COc1cc(OC)cc(C(=O)N[C@H](C(=O)NCCc2ccc(S(N)(=O)=O)cc2)C(C)C)c1	-9	-21	-1	-18	?	2	0.9
C/C(=N\NC(=O)c1nnn(-c2nonc2N)c1CSc1ccccc1)c1ccc2c(c1)OCO2	/	/	3	0	6608	/	/
C(#CCN1CCOCC1)COC(c1ccccc1)c1ccccc1	20	4	2	-20	2596	4	-2.3
CC12CC[C@H]3[C@@H](CCC4(O)C[C@H](O)CCC34C=NNC(=O)Cc3ccccc3)C1(O)CCC2C1=CC(=O)OC1 (some centres not stated)	0	2	/	/	/	9	4.0
CCC(C(=O)NN=C(C)c1cccnc1)c1ccccc1 (configuration not stated)	-1	-5	/	/	/	6	3.0
O=c1c2ccccc2nc(-c2ccc(Cl)cc2Cl)n1-c1ccncc1	4	9	0	-11	18710*	5	5.5
Cc1csc(SCC(=O)Nc2sccc2C#N)n1	1	6	32	-95	4332	5	0.9
O=C1c2ccccc2C(Nc2ccc(F)c(Cl)c2)N1c1ccccn1 (configuration not stated)	8	10	7	-16	5812	17	20
c1c2c(cc3sc(N4CCCCC4)nc13)OCO2	-78	-28	23	-13	4051	7	19
COc1ccc2[nH]c(C(=O)N3CCN(C)CC3)c(C)c2c1	6	6	2	-11	3490	11	3.3
COC(=O)c1cc(S(=O)(=O)NCCN2CCN(c3ccccc3F)CC2)c[nH]1	0	7	0	-8	6048	-2	3.7
COc1ccccc1NC(=O)COc1ccc(C(=O)OCC(=O)N2CCCC2=O)cc1OC	2	1	4	-8	4168	3	5.5
O=C(N/C(=C/c1cccs1)C(=O)N1CCOCC1)c1ccco1	3	0	5	-22	2035	9	1.8
O=C(CN(Cc1ccc(F)cc1)C(=O)c1csnn1)NCc1ccc2c(c1)OCO2	-16	-3	7	7	4300	-1	2.5

Other compounds:
SMILES	Mtb hypoxia inh	Mtb hypoxia inh growth	BJeLR viability	PrP UTR inh	Autofluor counter	Sa ugtP lethal	Sa RN4220 lethal
Cn1c(=O)c2c(nc3n2CCCN3CCc2ccccc2)n(C)c1=O	7	-4	6	-5	5367	-2	-1.5
O=C(COc1ccc(Cl)cc1)Nc1cc(S(=O)(=O)N2CCCCC2)ccc1N1CCCCC1	2	0	-4	-4	8722	-9	6.4
Cc1oc(-c2ccc(Cl)cc2)nc1CSCC(=O)NC1CCN(Cc2ccccc2)CC1	8	10	13	-3	5717	28	1.3
COc1ccc(CN(C)C(=O)CCCNC(=O)c2ccc(Cl)cc2)cc1	6	5	-9	-22	3102	10	1.4
CC(=O)Oc1cc2c3c(c1)/C(=C1/SC(=S)NC1=O)C(=O)N3C(C)(C)C=C2C	12	-3	3	-75	5362	24	6.1
CCOc1ccc(NS(=O)(=O)c2ccc(C)c(C(=O)NCCCn3ccnc3)c2)cc1	0	-2	-1	-13	3360	-3	5.5
CCCCNc1ccc(C(CC(N)=O)NC(=O)Cc2cccc3ccccc23)cc1[N+](=O)[O-] (configuration not stated)	4	9	-9	-23	3363	-11	2.8
NNP(=O)(CC(=O)c1ccccc1)c1ccccc1 (configuration not stated)	11	5	-3	/	4692	4	2.5
CCn1nc(C)c(CN2CCc3c([nH]c4ccccc34)C2c2ccc(F)c(OC)c2)c1C (configuration not stated)	9	14	-5	-5	3626	16	0.0
CC(C(=O)NCC1CCCO1)N(C(=O)c1snc(C(N)=O)c1N)c1cccc(F)c1 (configuration not stated)	4	2	-7	-27	9542	-6	3.3

Shown in markdown: part of the list above.
| SMILES | Mtb hypoxia inh | Mtb hypoxia inh growth | BJeLR viability | PrP UTR inh | Autofluor counter | Sa ugtP lethal | Sa RN4220 lethal |
| --- | --- | --- | --- | --- | --- | --- | --- |
| Cn1c(=O)c2c(nc3n2CCCN3CCc2ccccc2)n(C)c1=O | 7 | -4 | 6 | -5 | 5367 | -2 | -1.5 |
| COc1ccc(CN(C)C(=O)CCCNC(=O)c2ccc(Cl)cc2)cc1 | 6 | 5 | -9 | -22 | 3102 | 10 | 1.4 |

(listing goes on)
SMILES	Mtb hypoxia inh	Mtb hypoxia inh growth	BJeLR viability	PrP UTR inh	Autofluor counter	Sa ugtP lethal	Sa RN4220 lethal
O=C(NCC(c1ccc(F)cc1)N1CCOCC1)c1ccccc1F (configuration not stated)	16	8	-7	5	3548	-1	0.9
Cc1ccc(S(=O)(=O)Nc2cccnc2)c(C)c1C	-7	-1	0	-1	3577	3	5.7
CC(=O)Nc1nonc1NC(=O)CSC1=NCCS1	/	/	-3	-12	3665	13	1.4
Cc1oc(-c2ccccc2Cl)nc1CN1CCCCC1c1cccnc1 (configuration not stated)	-6	12	-19	-16	11524	3	4.4
Cc1c(O)ccc2c(CC(=O)N[C@@H](Cc3c[nH]c4ccccc34)C(=O)O)cc(=O)oc12	1	8	4	-18	3114	15	-0.8
CCOC(=O)c1ccc(-n2c(C)nc3c(cnn3-c3ccccc3Cl)c2=O)cc1	5	12	8	-9	3909	4	5.8
Cc1ccccc1NC(=O)C1CCC(C)(C(=O)O)C1(C)C (configuration not stated)	4	6	-3	-23	2348	11	5.6
CN1CCN(c2nc3c(c(=O)[nH]c(=O)n3C)n2CCOc2ccccc2)CC1	3	2	10	1	3314	-3	-15
Cc1c(NC(=O)CN2CCN(c3ccc(O)cc3)CC2)c(=O)n(-c2ccccc2)n1C	-3	7	-3	-15	4681	2	5.9
COc1ccc(-n2c(SCC(=O)Nc3cc(C)on3)nc3c(c2=O)SCC3)cc1	7	2	-9	8	4141	-3	-7.8

Of the compounds above, three contain a cyano group.
SMILES	Mtb hypoxia inh	Mtb hypoxia inh growth	BJeLR viability	PrP UTR inh	Autofluor counter	Sa ugtP lethal	Sa RN4220 lethal
CN(CCC#N)C(=O)COC(=O)c1ccc2c(c1)C(=O)N(C1CCCCC1)C2=O	8	-11	-1	-46	6250	5	1.5
N#CCCn1cc(C=NNC(N)=S)c(-c2ccccc2)n1	1	8	/	/	/	7	1.4
Cc1csc(SCC(=O)Nc2sccc2C#N)n1	1	6	32	-95	4332	5	0.9

(more compounds)
SMILES	Mtb hypoxia inh	Mtb hypoxia inh growth	BJeLR viability	PrP UTR inh	Autofluor counter	Sa ugtP lethal	Sa RN4220 lethal
COc1ccc(-c2ccnc3c(C(=O)O)cnn23)cc1	7	0	9	-25	4106	5	0.4
CC(OC(=O)c1ccc(-n2cnnn2)cc1)C(=O)Nc1ccccc1[N+](=O)[O-] (configuration not stated)	6	3	/	/	5078	8	3.6
Cc1ccc(S(=O)(=O)N2CCN(CCOc3c(Cl)cccc3Cl)CC2)cc1C	1	2	/	-13	8065	23	-3.8
O=C(CNCc1ccc(F)cc1)Nc1ccccc1[N+](=O)[O-]	13	15	-2	-11	4243	9	5.7
Cc1cccc(NC(=O)CSc2ncnc3sc(C)c(C)c23)n1	3	4	-4	-4	5416	-7	2.4
Cc1ccc(C)c(N2CCN(S(=O)(=O)c3ccc4c(c3)NC(=O)CO4)CC2)c1	7	-8	-1	-8	3993	-2	1.2
COc1ccc2cc(C(=O)C3CCCN(C(=O)/C=C/c4ccccn4)C3)ccc2c1 (configuration not stated)	-6	-10	4	-10	4513	0	4.2
CCc1nnc(NS(=O)(=O)c2ccc(N=Cc3c(C)[nH]n(-c4ccc(C)cc4)c3=O)cc2)s1	25	22	18	-9	10653	14	5.8
O=C(Nc1ccccc1C(=O)OCc1nnc(-c2ccccc2)o1)c1ccco1	17	11	-2	-16	3322	7	2.5
CCOCCCNc1ccc(-c2ccccc2)nn1	8	7	-10	-59	10153	-1	1.1
O=C(NC1C=CS(=O)(=O)C1)c1ccccc1 (configuration not stated)	9	-3	-5	-8	1956	14	6.0
Cc1ccc(C)c(N2CCN(C(=O)CN3C(=S)NC(C)(C)CC3C)CC2)c1 (configuration not stated)	4	6	-6	-24	4489	3	2.9
Cc1[nH]c2ccc(OC(F)(F)F)cc2c1CCN1C(=O)c2ccc(C(=O)O)cc2C1=O	-7	-2	15	-18	3735	-2	2.4
Cc1ccc(C)c(NC2=C(Cl)C(=O)OC2OC(C)C)c1 (configuration not stated)	12	5	-2	-36	4877	0	13
